# Rango-impB inh = inhibitors of Rango-importin beta complex formation; actives 0.031% (n = 340,000); AID 540263; Potency, µM (doses to about 92.2 µM), for inactives: top-dose inhibition of complex formation; Rango CFP/YFP FRET sensor + importin beta, 45 min; active = rising FRET ratio curve, often small or poorly fitted; inconclusive = mostly compound fluorescence or quenching in the first reads; inactive = flat curves in all reads;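 further: potency means the concentration at half of the fitted maximal effect; 0% = DMSO wells and 100% = buffer wells lacking importin beta; nearly all actives have a fitted effect of over 15% in size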
# Target sequence (Q14974 whole entry, looked up): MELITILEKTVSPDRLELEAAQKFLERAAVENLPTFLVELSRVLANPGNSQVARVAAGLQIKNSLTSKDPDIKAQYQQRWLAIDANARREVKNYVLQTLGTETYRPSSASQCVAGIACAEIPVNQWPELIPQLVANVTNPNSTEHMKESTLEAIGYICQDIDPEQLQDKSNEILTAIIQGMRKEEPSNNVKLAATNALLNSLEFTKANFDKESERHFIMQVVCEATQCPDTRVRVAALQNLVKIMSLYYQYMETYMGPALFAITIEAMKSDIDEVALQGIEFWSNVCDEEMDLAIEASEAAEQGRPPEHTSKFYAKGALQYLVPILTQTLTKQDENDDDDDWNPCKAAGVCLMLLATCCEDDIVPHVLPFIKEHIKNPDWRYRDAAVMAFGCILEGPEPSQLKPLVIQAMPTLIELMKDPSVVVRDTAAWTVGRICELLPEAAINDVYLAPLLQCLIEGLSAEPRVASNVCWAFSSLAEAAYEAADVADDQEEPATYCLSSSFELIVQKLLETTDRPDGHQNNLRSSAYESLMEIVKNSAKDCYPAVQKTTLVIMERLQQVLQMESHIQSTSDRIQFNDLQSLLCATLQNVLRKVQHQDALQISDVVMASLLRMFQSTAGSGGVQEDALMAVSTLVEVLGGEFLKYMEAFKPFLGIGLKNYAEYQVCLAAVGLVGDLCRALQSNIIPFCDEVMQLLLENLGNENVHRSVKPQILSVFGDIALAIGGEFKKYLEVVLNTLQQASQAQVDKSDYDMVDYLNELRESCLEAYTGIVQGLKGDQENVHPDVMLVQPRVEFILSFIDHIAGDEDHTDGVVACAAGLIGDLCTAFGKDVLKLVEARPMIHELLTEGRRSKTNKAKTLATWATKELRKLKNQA
#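 FRET biosensor (snurportin 1 IBB flanked by EYFP and cerulean), 50 nM, with compound 5 min, then 0.125 microM importin beta in PBS, 1 mM DTT, 0.02% Tween-20, 0.1% BSA. CFP/YFP ratio read after 45 min at room temperature; pre-read flags interference.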
# Rango release inh = inhibitors of RanGTP-induced Rango-importin beta complex dissociation; O95149+P62826; Biochemical FRET Rango-importin beta, RanGTP-induced dissociation; Potency, µM (doses to about 46.1 µM), for the others: at the highest dose activity change, negative = inhibition; actives 0.071% (n = 340,000); active means falling FRET ratio curve, often poorly fitted, with flat reads before Ran was added; inconclusive means other falling curves, or compound fluorescence or quenching; inactive means flat or rising ratio curve;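 further: potency means the concentration at half of the fitted maximal effect; % of control where 0% means no effect; nearly all actives have a fitted effect of over 45% in size; -100% = wells without RanGTP and RCC1; the record marks most hits as doubtful in a second field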
#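 FRET read at 45 min, room temperature: inhibitors block the CFP/YFP signal rise when RanGTP (0.6 uM Ran, 2 mM GTP, 0.2 uM RCC1) frees Rango (0.1 uM) from importin beta (0.25 uM). Pre-read after 5 min compound exposure flags interference.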
# miR-21 FLuc = miR-21 reporter, rising signal; HeLa miR-21 FLuc reporter, luciferase, 48 h; Potency, µM (series often up to 38.3 µM), for inactives: top-dose reporter change, positive = more light; 340,000 tested, under 10 active; active = well fitted rising curve with a large enough effect; inconclusive = small, poorly fitted or top-dose-only effect; inactive = no such curve, though single readings can be large or run the other way;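 further: % of control where 0% means no effect; miR-21 action dims this reporter so a rising signal means less miR-21 action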
#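 Compounds were titrated across several concentrations (up to approximately 40 uM) and incubated 48 hours with HeLa miR-21-FLuc reporter cells (miR-21 target sequence downstream of FLuc, endogenous miR-21). Readout was firefly luciferase luminescence after lytic detection reagent.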
# GLA inh pH 4.5 = blocks human alpha-galactosidase A at pH 4.5; purified enzyme, 4-MU-alpha-Gal fluorescence, pH 4.5; activity change, negative = inhibition, % at 105 µM; 230,000 tested, under 10 active; AID 1467; inconclusive = small, poorly fitted or top-dose-only inhibition, or a rising curve; inactive = flat fitted curve, though single readings scatter; no compound was filed as active;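 further: 0% = full activity with enzyme and -100% = basal without enzyme; dose as in the result columns while the protocol names 77 µM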
# Starred values were filed as active, the others as inactive; u = inconclusive; x = no result given; & = joins results of further samples. A portion of the library; the hit share may differ from the screen's.
# Sample of the layout, six compounds:
SMILES,Rango-impB inh,Rango release inh,miR-21 FLuc,GLA inh pH 4.5
OC(COc1ccc2ccccc2c1Cl)CN1CCOCC1 (centres undefined),-0.4%,-4%,-64%,-8
O=C(Cn1c2ccccc2c(=O)c2ccccc21)Nc1cccc(F)c1,u,u,-7%,13
O=C(N/N=C/c1cccc(Oc2ccccc2)c1)c1cccc(O)c1,0.5%,0%,-12%,x
CC(=O)N1CCN(c2cc3c(cc2F)c(=O)c(C(=O)O)cn3C2CC2)CC1,-2.3%,-14%,0%,5
CCCCn1c(NC(=O)c2ccccc2)c(C#N)c2nc3ccccc3nc21,u,u,26%,-2
C=C(C)CNC(=S)N/N=C/c1ccccc1OCC(=O)O,8.6%,-7%,-3%,-1

# The whole of this part, repeating the preview:
SMILES,Rango-impB inh,Rango release inh,miR-21 FLuc,GLA inh pH 4.5
OC(COc1ccc2ccccc2c1Cl)CN1CCOCC1 (centres undefined),-0.4%,-4%,-64%,-8
O=C(Cn1c2ccccc2c(=O)c2ccccc21)Nc1cccc(F)c1,u,u,-7%,13
O=C(N/N=C/c1cccc(Oc2ccccc2)c1)c1cccc(O)c1,0.5%,0%,-12%,x
CC(=O)N1CCN(c2cc3c(cc2F)c(=O)c(C(=O)O)cn3C2CC2)CC1,-2.3%,-14%,0%,5
CCCCn1c(NC(=O)c2ccccc2)c(C#N)c2nc3ccccc3nc21,u,u,26%,-2
C=C(C)CNC(=S)N/N=C/c1ccccc1OCC(=O)O,8.6%,-7%,-3%,-1
CC(C)CN1C(=O)c2ccc(NC(=O)c3ccco3)cc2C1=O,-6.0%,9%,-41%,-6
Cc1c([N+](=O)[O-])c(C(=O)Nc2ccc3c(c2)OCCO3)nn1C,-0.1%,16%,-44%,-2
CC(=O)Nc1ccc(C(=O)NNC(=O)CCCCC(=O)NNC(=O)c2ccc(NC(C)=O)cc2)cc1,-0.5%,11%,x,x
CCC(C)n1nccc1NC(=O)C(C)OC(=O)c1cc2ccccc2[nH]1 (centres undefined),-2.3%,10%,-4%,-9
C=CCn1c(CCNC(=O)c2cccs2)nnc1SCC(=O)c1ccc(Cl)cc1,-0.3%,6%,0%,-1
CC1CN(C(=O)CSc2nc(-c3ccccc3)cs2)CC(C)O1 (centres undefined),-4.2%,0%,-8%,6
COc1cccc(N=Nc2c(N)[nH]n3c(=O)cc(-c4ccccc4)nc23)c1,0.9%,1%,-2%,3
COc1cc(NCCCCCCN)c2ncccc2c1OC,0.7%,-18%,x,x
O=C(COc1ncnc2ccccc12)Nc1cccc(S(=O)(=O)N2CCOCC2)c1,-2.5%,8%,-1%,-1
COc1ccc(C(C)NC(=O)c2ccc([N+](=O)[O-])cc2)cc1OC (centres undefined),0.1%,8%,-6%,8
Cc1cccc(NC(=O)C(c2cccc([N+](=O)[O-])c2)N2CCCCC2)c1 (centres undefined),-3.3%,-2%,-1%,0
COc1ccc(NC(=O)CN(C)C(=O)COc2ccccc2Cc2ccccc2)cc1,0.9%,u,x,x
Cc1n[nH]c(C)c1CCNCc1ccc(OCC(O)CN2CCCCC2)cc1 (centres undefined),3.5%,9%,-3%,3
CCOC(=O)c1ccc(COc2ccc(C(C)C)cc2)o1,3.7%,8%,-60%,1
COc1cc(C(=O)Nc2ccc(S(=O)(=O)NC(C)C)cc2)cc(OC)c1OC,3.4%,2%,9%,-2
O=C(Nc1nc(-c2cccnc2)cs1)c1ccc(S(=O)(=O)N2CCOCC2)cc1,-1.1%,1%,1%,1
COc1ccc(S(=O)(=O)N2CCOCC2)cc1NC(=O)c1ccc(=O)[nH]c1,-1.8%,-9%,x,x
CNC(=O)CN1C(=O)c2ccccc2S1(=O)=O,-2.7%,3%,-5%,-1
CCN(CC)CCN(C(=O)c1ccc(S(=O)(=O)N(C)C2CCCCC2)cc1)c1nc2c(C)cccc2s1,4.8%,-1%,17%,x
Cc1noc(C)c1CCC(=O)N1CCCC(CCC(=O)NCc2ccc(F)c(F)c2)C1 (centres undefined),3.1%,2%,-14%,-5
Fc1ccc2c(c1)[C@H]1OCC[C@H]1[C@@H](c1ccco1)N2,2.2%,-7%,-16%,1
Cc1cccc(C)c1OCc1cc(C(=O)NC2CCC2)no1,4.7%,9%,-44%,x
CCc1nc(C)cc(N)c1OCc1ccccc1,-3.8%,4%,-11%,2
Cc1cc(C)c(NC(=O)CSc2ccc(-c3ccccn3)nn2)c(C)c1,-0.5%,3%,0%&-6%,x
COC(=O)c1cc2sccc2n1Cc1nc(-c2ccc(OC)cc2)oc1C,0.0%,-9%,-4%,-3
COCC1CCCN(C(=O)c2cc(COc3cccc4cccnc34)on2)C1 (centres undefined),2.9%,-5%,-7%,x
O=C(NCCc1csc(-c2cccnc2)n1)c1cccc2ccccc12,-3.1%,-8%,2%,2
COc1ccc(NC(=O)COc2ccc(N(C)S(=O)(=O)c3ccc(Cl)cc3)cc2)cc1OC,-4.5%,15%,x,x
O=C(CSc1oc(-c2ccc(F)cc2)nc1S(=O)(=O)c1ccccc1)NCC1CCCO1 (centres undefined),4.0%,-1%,-8%,3
C=CCOc1ccc(C2=NOC(C(=O)Nc3ccc4c(c3)OCCO4)C2)cc1OC (centres undefined),-0.4%,-7%,0%,x
O=C1[C@@H]2CSCN2C(=O)CN1Cc1cccc(C(F)(F)F)c1,9.3%,7%,-3%,x
COC(=O)c1sc(NC(=O)c2ccco2)nc1C,2.4%,0%,-11%,-8
O=c1c2ccccc2n2cnnc2n1-c1ccccc1,-4.1%,47%,-18%,6
CCNc1nc(C#N)nc2c1ncn2-c1cc(F)cc(F)c1,0.3%,u,x,x
O=C(Cc1cccc(F)c1)N1CCCC(CO)(Cc2ccc(F)cc2F)C1 (centres undefined),0.1%,2%,12%,x
O=C1N[C@@H](Cc2ccccc2)C(=O)N2CCC[C@@H]12,-1.9%,u,0%,x
Cc1ccc(SCC(=O)n2nc(C)cc2C)cc1,-0.7%,u,-11%,-1
COc1cc2c(cc1OC)C(c1ccccc1)=NCC2,-1.9%,0%,-12%,-1
O=C(COc1ccccc1C(=O)Nc1ccccc1)c1ccc(F)cc1,-3.3%,-4%,-1%,-4
Nc1ncncc1-c1ccccc1Cl,-0.3%,32%,x,x
COc1ccc([N+](=O)[O-])cc1NCC(=O)Nc1cccc(S(=O)(=O)N2CCCC2)c1,2.3%,0%,x,x
Cc1c(OC(C)C(=O)NCCCN2CCCC2=O)ccc2c3c(c(=O)oc12)CCCC3 (centres undefined),-1.2%,1%,-15%,x
O=C(NNC(=O)c1cc(-c2ccncc2)nc2ccccc12)c1cccc(Cl)c1,-3.2%,0%,x,x
CCOC(=O)c1ccc(CNC(=O)C2CCCCC2C(=O)OCC(F)(F)F)o1 (centres undefined),5.3%,-24%,-3%,4
O=C(O)c1ccccc1-c1ccccc1C(=O)Nc1cccc(Br)c1,-0.1%,-6%,-2%,-2
COc1cccc(NC(=S)/C(=C(\[O-])c2ccc(C)c([N+](=O)[O-])c2)[n+]2ccccc2)c1,-5.4%,2%,-35%,-8
O=C1CCN1C1(C(=O)NC2CCCCC2)CCCC1,0.6%,13%,-2%,6
NNC(=O)Cn1nc(-c2ccccc2)c2ccccc2c1=O,-0.7%,u,5%,x
Cc1ccccc1-c1cccc([C@@H]2C[C@H]3C(CN2)CON3C)c1 (some centres undefined),-1.0%,0%,x,x
CCn1c(=O)c([N+](=O)[O-])c(N2CCOCC2)c2ccccc21,3.3%,19%,1%,3
O=C(C[n+]1cccc(CO)c1)Nc1nc2ccccc2s1,4.2%,-5%,-15%,0
Cc1occc1C(=O)Nc1c(F)cc(F)cc1Br,0.2%,6%,-4%,0
NC(=NCCc1c[nH]c2ccccc12)NS(=O)(=O)c1ccc(F)cc1,2.9%,1%,9%,-5
COc1ccc(-n2c(CCc3ccccc3)nnc2SCC(=O)c2ccc(Cl)cc2)cc1,2.3%,5%,-2%,-2

# Structural class, the compounds so far containing a Cl atom.
SMILES,Rango-impB inh,Rango release inh,miR-21 FLuc,GLA inh pH 4.5
OC(COc1ccc2ccccc2c1Cl)CN1CCOCC1 (centres undefined),-0.4%,-4%,-64%,-8
C=CCn1c(CCNC(=O)c2cccs2)nnc1SCC(=O)c1ccc(Cl)cc1,-0.3%,6%,0%,-1
COc1ccc(NC(=O)COc2ccc(N(C)S(=O)(=O)c3ccc(Cl)cc3)cc2)cc1OC,-4.5%,15%,x,x
Nc1ncncc1-c1ccccc1Cl,-0.3%,32%,x,x
O=C(NNC(=O)c1cc(-c2ccncc2)nc2ccccc12)c1cccc(Cl)c1,-3.2%,0%,x,x
COc1ccc(-n2c(CCc3ccccc3)nnc2SCC(=O)c2ccc(Cl)cc2)cc1,2.3%,5%,-2%,-2

# Full records as entered above. Order of screens: Rango-impB inh	Rango release inh	miR-21 FLuc	GLA inh pH 4.5
# Entry for NC(=NCCc1c[nH]c2ccccc12)NS(=O)(=O)c1ccc(F)cc1 : 2.9%	1%	9%	-5
# Entry for Cc1occc1C(=O)Nc1c(F)cc(F)cc1Br : 0.2%	6%	-4%	0
# Entry for O=C(NNC(=O)c1cc(-c2ccncc2)nc2ccccc12)c1cccc(Cl)c1 : -3.2%	0%	x	x

# Next compounds
SMILES,Rango-impB inh,Rango release inh,miR-21 FLuc,GLA inh pH 4.5
CCCCN(CC)C(=O)c1cc2c(=O)[nH]c3ccc(C)cc3c2s1,1.2%,2%,-8%,x
CC(C)(C)NS(=O)(=O)c1ccc(OCC(=O)NCc2ccco2)cc1,u,1%,-4%,-8
COc1ccc(CCC(=O)N(C)CC(=O)Nc2ccc(Cl)c(C(F)(F)F)c2)cc1,1.4%,-3%,6%,x
COc1ccc(OC)c(C2=NO[C@@](CC(=O)O)(C(=O)Nc3ccc4c(c3)OCCO4)C2)c1,2.6%,-1%,-7%,x
Cc1cc(C)cc(N(C(=O)c2csnn2)C(C(=O)NC(C)(C)C)c2cccs2)c1 (centres undefined),1.7%,-5%,1%,14
CCc1c(C)nc2ncnn2c1N1CCCC(C(=O)NCCc2ccccc2)C1 (centres undefined),-0.1%,1%,-27%,2
Cc1ccccc1NC(=O)c1ccccc1,0.4%,-6%,-13%,1
O=C(CCNC(=O)C1CCN(S(=O)(=O)c2ccccc2)CC1)NCc1ccccn1,1.6%,-10%,1%,x
CS(=O)(=O)c1ccc(C(=O)OCC(=O)Nc2cccnc2Cl)cc1[N+](=O)[O-],-1.2%,0%,x,x
O=C(CNc1cccc(C(F)(F)F)c1)N/N=C/c1cccc(Br)c1,0.6%,10%,-1%,-4
C=CCn1c(CCNC(=O)c2cccs2)nnc1SCC(=O)Nc1cccc(F)c1,-0.1%,-7%,1%,4
Nc1nnc(SCCCOc2ccc(F)cc2)s1,1.7%,1%,-3%,x
COc1cccc(C2=CC(c3cc(OC)ccc3OC)n3nnnc3N2)c1 (centres undefined),u,-22%,25%,-13
Cc1nn(CC(=O)OCC(=O)NC(C)c2ccccc2)c(C)c1[N+](=O)[O-] (centres undefined),1.1%,24%,-1%,3
CC1CC(=O)Nc2ccccc2N1S(=O)(=O)c1ccc(Cl)cc1 (centres undefined),-0.7%,1%,0%,-4
COc1cc(NC(C(=O)Nc2cccc(C(C)=O)c2)c2ccccc2)cc(OC)c1OC (centres undefined),-4.9%,2%,5%,-5
C/C(=N\OC(=O)c1ccc(F)cc1)c1nccs1,4.5%,-12%,0%,-6
COc1cccc2sc(NN)nc12,u,-1%,2%,4
Cc1ccc(NCC(=O)c2ccc([N+](=O)[O-])cc2)cc1,0.0%,0%,-38%,-2
Nc1cc(C(=O)c2ccccc2)ccc1N1CCOCC1,-0.5%,1%,-56%,7
CCCC1SCC(C)(C)NC1=O (centres undefined),-3.3%,1%,x,x
O=C(CNS(=O)(=O)/C=C/c1ccccc1)OC1CCOC1=O (centres undefined),1.6%,3%,0%,-6
CN1CCN(c2oc(-c3ccccc3)nc2S(=O)(=O)c2ccc(Br)cc2)CC1,-1.0%,-8%,1%,x
CCOC(=O)NC(=O)CN1C(=O)NC2(CCc3ccccc32)C1=O (centres undefined),-0.7%,-5%,-2%,x

# Bioassay records as filed in PubChem.
